TRPV1 potentiator: potentiators of human vanilloid receptor 1 (TRPV1) | AID 540277 | Q8NER1 | potentiation, % at 8.33 µM | TRPV1-expressing cells, Fluo-8 calcium influx, capsaicin EC20 potentiation; host cell line not named in the record; control for the full effect not named in the record | 0.02% of 320,000 active; active means potentiation above 80%; inconclusive means 30% to 80%; inactive means below 30%; note: 0% is about no effect
Target sequence (Q8NER1 whole entry, looked up): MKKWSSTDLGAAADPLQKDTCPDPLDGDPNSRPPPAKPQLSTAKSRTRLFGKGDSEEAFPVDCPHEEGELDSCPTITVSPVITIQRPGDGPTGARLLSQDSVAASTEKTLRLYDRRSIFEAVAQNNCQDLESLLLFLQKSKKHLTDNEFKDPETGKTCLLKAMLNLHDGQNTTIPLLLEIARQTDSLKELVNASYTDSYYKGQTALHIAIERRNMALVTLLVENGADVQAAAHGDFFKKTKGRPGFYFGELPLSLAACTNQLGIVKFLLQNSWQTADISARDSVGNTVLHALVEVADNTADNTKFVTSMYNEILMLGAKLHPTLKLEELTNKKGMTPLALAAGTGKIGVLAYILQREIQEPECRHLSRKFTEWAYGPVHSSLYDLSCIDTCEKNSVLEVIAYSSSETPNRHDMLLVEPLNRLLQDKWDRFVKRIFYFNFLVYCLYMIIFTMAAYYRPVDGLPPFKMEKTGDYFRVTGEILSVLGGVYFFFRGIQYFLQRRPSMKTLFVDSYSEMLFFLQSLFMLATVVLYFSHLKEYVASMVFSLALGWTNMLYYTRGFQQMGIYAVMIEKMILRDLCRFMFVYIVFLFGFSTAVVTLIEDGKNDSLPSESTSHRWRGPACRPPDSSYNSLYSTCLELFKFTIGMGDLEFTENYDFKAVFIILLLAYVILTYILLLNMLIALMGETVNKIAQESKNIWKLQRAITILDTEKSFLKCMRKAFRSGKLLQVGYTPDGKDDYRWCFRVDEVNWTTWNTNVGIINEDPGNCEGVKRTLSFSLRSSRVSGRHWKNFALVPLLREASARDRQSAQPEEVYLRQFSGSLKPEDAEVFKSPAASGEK
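Fluo-8 calcium influx in TRPV1-expressing cells, kinetic read (ex 480/em 520 nm). Compound added and read 3 min for agonist activity, followed by capsaicin at EC20 final and 2 min further read for enhancement.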
gsp ag: agonists of gsp mutant (McCune-Albright syndrome); gsp mutant cells, cAMP HTRF, 30 min; control for the full effect not named in the record; Potency, µM (series often up to 76.9 µM), for inactives: top-dose activation (cAMP increase), usual class: activators; 0.13% of 340,000 active; AID 624287; active = well fitted activation curve with a large enough effect; inconclusive = small, poorly fitted or top-dose-only effect, or another doubt; inactive = no such curve, though single readings can be large or run the other way; cell line not stated here;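 note: phosphodiesterase inhibitor Ro 20-1724 added with compounds to block cAMP breakdown; potency is the fitted concentration of half-maximal effect; nearly all actives have a fitted effect of over 60% in size; about a fifth of the inactives were tested at one dose only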
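Cells in DMEM/10% FBS with G418 were pretreated with compounds in DMSO plus […] (300 uM stock) for 30 min at 37C. cAMP was measured by HTRF (cAMP-d2 plus anti-cAMP antibody-K) after 30 min at room temperature.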
ClpP mod: qHTS Assay for Activators of ClpP; ATP-dependent Clp protease proteolytic subunit (Bacillus subtilis (strain 168)), P80244; purified B. subtilis ClpP, FRET peptide cleavage, 20 min; Potency, µM (highest dose often 57.5 µM), inactives show at the highest dose activity change, negative = active; 1.9% of 340,000 active; active = well fitted falling curve with a large enough effect; inconclusive = small, poorly fitted or top-dose-only effect; inactive = no such curve, though single readings can be large or run the other way; note: potency is the fitted concentration of half-maximal effect; the source files actives as falling curves though it sought activators and does not explain the sign; nearly all actives have a fitted effect of over 65% in size; many hits overshoot -100%
Target sequence (P80244 whole entry, looked up): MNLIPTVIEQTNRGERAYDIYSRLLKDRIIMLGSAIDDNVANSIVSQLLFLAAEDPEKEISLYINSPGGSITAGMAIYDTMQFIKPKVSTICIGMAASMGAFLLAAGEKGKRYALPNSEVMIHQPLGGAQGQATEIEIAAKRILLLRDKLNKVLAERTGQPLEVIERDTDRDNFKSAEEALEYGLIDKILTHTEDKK
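FRET quenching reversal measured ClpP activation: 10 microg/mL B. subtilis ClpP at pH 8 with the FRET-FV decapeptide, read at 430 nm after 320 nm excitation. The 20-min minus 0-min signal was scaled between DMSO/no-enzyme wells and ADEP (5.8 microM final).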
Menin-MLL FL inh: menin-MLL binding inhibition, fluorescein peptide; FP activity change, % at 61.4 µM; Fluorescence polarization, fluorescein-MLL peptide displacement from menin; 290,000 tested, under 10 active; inconclusive = falling polarisation curve, or a change in total fluorescence; inactive = total fluorescence flat and polarisation flat or rising; no compound was filed as active; the % refers to the polarisation; negative = inhibition;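 note: % of control where 0% means no effect; inhibitors lower the polarisation; unlabelled MLL peptide was the positive control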
D2 PAM: positive allosteric modulators of human D2 dopamine receptor; P14416; 0.23% of 360,000 active; DiscoveRx D2 beta-arrestin cells, luminescence, 90 min; 100% = 57 uM dopamine signal; potentiation, % (no concentration beside the values); active = potentiation of 50% or more; inconclusive = 30% to 50%; inactive = 30% or less;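 note: compound concentration not given in the record; tested on top of an EC20 dose of dopamine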
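D2 cells co-treated with compound plus 50 nM dopamine (EC20) for 90 min at 37 deg C to detect potentiation. Beta-arrestin recruitment was read as enzyme-fragment luminescence after 1 h at ambient temperature. Full response was set by 57 uM dopamine.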
Sfp inh: blocks B. subtilis Sfp PPTase activity; 3.5% of 310,000 active; Potency, µM, for the others: max response, negative = inhibition, actives largely listed as inhibitors; Biochemical Sfp PPTase activity, qHTS; AID 1490; Q9F4F7; active = well fitted inhibition curve with a large enough effect; inconclusive = small, poorly fitted or top-dose-only effect, or another doubt; inactive = no such curve, though single readings can be large or run the other way;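 note: the enzyme is Sfp with the accession as filed and its product quenches rhodamine fluorescence; potency is the fitted concentration of half-maximal effect; 0% = enzyme reaction without inhibitor and -100% = no enzyme wells; top concentration of the series not given in the record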
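Step 1, compound plus 15 nM Sfp-PPTase, 15 min, room temperature. Step 2, add rhodamine-CoA (5 uM) and BHQ-2-YbbR (12.5 uM). Step 3, read 525/598 nm fluorescence at 0 and 30 min.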
gsp antag: antagonizes gsp, the McCune-Albright syndrome mutation; gsp-mutant cells, cAMP HTRF, 30 min; control for the full effect not named in the record; Potency, µM (highest dose often 76.9 µM), inactives show top-dose activity change, negative = inhibition, hits mostly inhibitors; 0.4% of 340,000 active; active = falling curve of any shape with a large fitted effect; inconclusive = falling curve, mostly with a smaller effect; inactive = flat or rising curve; cell line not stated here;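 note: intracellular cAMP measured with PDE inhibitor Ro 20-1724 present during compound exposure; potency is the fitted concentration of half-maximal effect; % is set by controls: 0 for no effect and ±100 for the full control effect; nearly all actives have a fitted effect of over 65% in size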
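Cells in G418 medium, seeded 16-24 h, 37C; buffer exchange to DPBS + 1 mM CaCl2, 0.5 mM MgCl2, 0.05% BSA; cpds in DMSO + […] (300 uM stock), 30 min 37C; HTRF cAMP detection.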
An asterisk follows results filed as active; ? = inconclusive; / = not tested or not shown; & = joins results of further samples; [ ] = dose if it differs, or a comment.

SMILES	TRPV1 potentiator	gsp ag	ClpP mod	Menin-MLL FL inh	D2 PAM	Sfp inh	gsp antag
CC(C)(C)NC(=O)NC(=O)CSc1ncc(C(F)(F)F)cc1Cl	-8	12%	-0.7%	0.6	-12	-1%	-1%
Cn1c(=O)c2c(nc(CN3CCN(C(=O)c4ccco4)CC3)n2CCCc2ccccc2)n(C)c1=O	4	9%	-2.4%	-2.7	0	3%	-4%
CSc1nnnn1-c1ccc(Cl)cc1	5	-8%[15.4 µM]	/	-2.1	-7	-16%	10%
Cc1ccc(C(=O)NCc2ccncc2)cc1S(=O)(=O)N1CCCCC1	-13	-1%	-28%	/	-4	9%	4%
NC(=O)CNC(=O)[C@@H]1CC2(CC(c3ccc(Cl)cc3)=NO2)CN1C(=O)c1ccccc1 (stereo partly specified)	7	4%	-4.1%	0.7	0	1%	8%
COC(=O)C1CCN(C(=O)COC(=O)c2cc(-c3cccs3)nn2-c2ccccc2)CC1	-8	-3%	-3.8%	/	-9	/	-6%
CC(=O)Nc1ccc(N/C=C/C(=O)c2ccco2)cc1	-6	-2%	0.9%	?	2	-17%	0%
COc1ccc(C2=NOC(C(=O)Nc3c(C)n(C)n(-c4ccccc4)c3=O)C2)cc1OC (stereo unspecified)	8	-8%	-2.3%	0.3	-6	6%	-2%
CCC(C(=O)Oc1c(C(C)C)cccc1C(C)C)c1ccccc1 (stereo unspecified)	-8	/	0.2%	/	-4	/	-1%
C[C@H](CO)N1C[C@H](C)[C@H](CN(C)C(=O)Nc2ccc(C(F)(F)F)cc2)OCc2cnnn2CCCC1=O	/	-45%[inhibitor]	-0.9%	/	-1	/	/
Cc1cccc(NCc2nc(SCC(N)=O)n[nH]2)c1	0	8%	-2.3%	-1.3	2	-25%	7%
C=CCNC(=O)c1c(Cl)nc(C)c([N+](=O)[O-])c1C	-1	-11%[15.4 µM]	-0.2%	2.5	-4	1%	18%
COC(=O)c1nnc(-c2ccccc2)nc1OC	0	7%	-2.7%	2.6	-5	9%	1%
Cc1[nH]c2ccccc2c1C(=O)C(=O)NCCc1ccc(S(N)(=O)=O)cc1	7	20%	-2.6%	5.0	10	5%	7%
CCCc1c(C(=O)N/N=C/c2c(OC)ccc3ccccc23)nnn1-c1nonc1N	25	1%	3.9%	-1.0	-2	10%	-2%
COCc1ccc(C(=O)N2CCCC(N3CCN(c4ccc(F)cc4)CC3)C2)o1 (stereo unspecified)	-8	-32%[inhibitor]	-7.3%	/	-21	0%	-10%
COc1ccc(/C=C/C(=O)NCc2cccnc2)cc1	-32	-5%	-4.9%	1.3	-1	-4%	3%
COc1cc(C(=O)Nc2ccccc2C(=O)Nc2ccccn2)cc(OC)c1OC	-9	4%	0.1%	-1.5	?	1%	15%
CCN(CC)S(=O)(=O)c1ccc(NC(=O)COC(=O)CNS(=O)(=O)/C=C/c2ccccc2)cc1	16	10%	-2.1%	6.0	-9	3%	-6%
CCCn1c(=O)c(C(=O)Nc2ccccc2)c(O)c2ccccc21	-3	-11%	6.7%	6.7	-1	0%	8%
CCN(CC(=O)Nc1c(F)cccc1F)C(=O)c1ccc2c(c1)NC(=O)C(C)S2 (stereo unspecified)	5	-3%[15.4 µM]	0.7%	/	14	/	5%
CCCn1cccc(C(=O)Nc2ccc(OC)cc2)c1=O	-16	?	/	-21	-1	-2%	-6%
O=C(Cc1ccc([N+](=O)[O-])cc1)Nc1ccc(Cl)cc1	-22	-18%[15.4 µM]	?	-0.7	-9	-42%	-4%
CC(C)NS(=O)(=O)c1ccc(NC(=S)NC(=O)c2cccc([N+](=O)[O-])c2)cc1	-3	-13%	-2.8%	-0.5	-25	-11%	-11%
CN(C(=O)CSc1nnc(-c2n[nH]c3ccccc23)o1)c1ccccc1	-18	6%[15.4 µM]	/	1.7	-3	-10%	-24%

Next part
SMILES	TRPV1 potentiator	gsp ag	ClpP mod	Menin-MLL FL inh	D2 PAM	Sfp inh	gsp antag
N#Cc1c(N)c(C(=O)c2ccccc2)n2ccccc12	/	3%[15.4 µM]	/	/	-5	/	20%
CCCCc1ncc(CN2CCN(Cc3ccc(C)cc3)C(CCO)C2)[nH]1 (stereo unspecified)	4	10%	-3.2%	1.6	-27	4%	12%
Cc1ccc(NC(=O)NC(=O)CN2CCCC2c2ccc3c(c2)OCCO3)cc1C (stereo unspecified)	-5	-35%[inhibitor]	-0.4%	/	-2	/	-20%
C#CCOCCOCCOCCNc1nc(N2CCN(C(=O)[C@H](CCCCN)n3cc([C@@H](N)CO)nn3)CC2)nc(N2CCN(C(=O)[C@H](Cc3cc4ccccc4[nH]3)n3cc([C@@H](N)CC(C)C)nn3)CC2)n1	-2	/	/	4.9	/	-9%	/
CCOc1ccccc1C1c2cc3c(cc2OC(C)(N2CCCC2)C1C)OCO3 (stereo unspecified)	/	-18%[15.4 µM]	/	/	13	/	11%
Nc1nc(NC(=O)c2ccccc2)nn1-c1ccccc1	2	3%	0.9%	0.5	-2	-8%	-7%
CC(C)C(NC(=O)OCc1ccccc1)C(=O)OCC(=O)NC1CC1 (stereo unspecified)	-2	1%[15.4 µM]	/	0.5	-2	4%	-15%
O=C(NCc1ccc(OC(F)(F)F)cc1)C1CCC(=O)N(C2CC2)C1 (stereo unspecified)	-4	-12%	-11%	-2.6	-2	5%	5%
CCN1C(=O)C(=O)N(CC(=O)N2CCC(C)Sc3ccccc32)C1=O (stereo unspecified)	8	5%	0.8%	/	-2	/	4%
COc1ccccc1NS(=O)(=O)c1cccc(C(=O)N2CCN(C(=O)c3ccco3)CC2)c1	5	-38%[inhibitor]	-1.5%	/	-1	/	-20%
COCC(C)NCc1ccc(OC)c(Br)c1 (stereo unspecified)	-4	-17%	1.4%	-0.1	-6	-6%	5%
CCc1nnc(NC(=O)c2c(C)nn(-c3ccccc3)c2Cl)s1	2	-57%[inhibitor]	1.6%	-3.0	-10	13%	7%
CC(=O)Nc1ccc2c(c1)CCc1ccccc1-2	-18	?	/	0.2	-5	-21%	3%
CCn1c(SCC(=O)N(C)CCC#N)nc2cc(S(=O)(=O)N3CCOCC3)ccc21	5	22%	1.4%	/	-12	/	-2%
O=C(c1ccc(F)cc1)N1CCC(N2CCOCC2)CC1	-6	-4%	2.2%	1.3	0	-15%	9%
NS(=O)(=O)c1ccc(CNC(=O)CNC(=O)c2ccc(Br)o2)cc1	8	-2%[15.4 µM]	0.9%	2.6	-13	8%	17%
CCCNC(=O)c1cc2ccccc2c(=O)o1	13	7%	?	-3.2	1	6%	4%
O=S(=O)(c1cccc(Cl)c1Cl)N1CCN(C(=S)NCCCN2CCOCC2)CC1	-20	-8%[15.4 µM]	/	-2.7	-15	-20%	-26%
O=C1c2ccncc2C(=O)N1CNc1ccc(Cl)cc1	16	13%	/	-7.0	-5	12%	8%
CCC(=O)N1CCN(c2ccc(NC(=S)NC(=O)C(C)C)cc2)CC1	-1	-1%	-0.6%	-4.3	4	-7%	-4%
COc1ccc(C(C(=O)NC(C)(C)C)N(C(=O)CCC(=O)Nc2cc(C)on2)c2ccc3c(c2)OCCO3)cc1 (stereo unspecified)	-6	-8%[15.4 µM]	/	8.4	-27	6%	6%
CC1Cc2ccccc2N1CC(=O)NC(=O)NC(C)(C)C (stereo unspecified)	-5	10%[15.4 µM]	/	-4.4	-6	7%	-18%
CNC(=S)Nc1ccc(OC(F)(F)F)cc1	-5	-6%	0.1%	1.0	-11	-28%	9%
O=C1CCc2cc(S(=O)(=O)N3CCC(C(=O)NCCC4=CCCCC4)CC3)ccc2N1	-17	-19%	-9.1%	-1.4	0	13%	-1%
CC(=O)N1CCC2(CC1)C(C#N)=C(N)Oc1n[nH]c(C)c12	15	-2%	-0.7%	2.3	11	13%	5%

Three compounds already listed, ordered by length of the SMILES, largest number first:
SMILES	TRPV1 potentiator	gsp ag	ClpP mod	Menin-MLL FL inh	D2 PAM	Sfp inh	gsp antag
COc1ccc(C(C(=O)NC(C)(C)C)N(C(=O)CCC(=O)Nc2cc(C)on2)c2ccc3c(c2)OCCO3)cc1 (stereo unspecified)	-6	-8%[15.4 µM]	/	8.4	-27	6%	6%
O=S(=O)(c1cccc(Cl)c1Cl)N1CCN(C(=S)NCCCN2CCOCC2)CC1	-20	-8%[15.4 µM]	/	-2.7	-15	-20%	-26%
Nc1nc(NC(=O)c2ccccc2)nn1-c1ccccc1	2	3%	0.9%	0.5	-2	-8%	-7%

Remaining list, next part:
SMILES	TRPV1 potentiator	gsp ag	ClpP mod	Menin-MLL FL inh	D2 PAM	Sfp inh	gsp antag
CCc1nc(C#N)c(N2CCOCC2)o1	-11	-14%	?	1.8	-11	15%	9%
CN1CCN(CC#CC(C)(O)C2CC3C=CC2C3)CC1 (stereo unspecified)	15	-16%	1.3%	-0.8	-3	-2%	13%
CCOC(=O)c1nn(-c2ccccc2C)c2nc(Nc3ccccc3)cc(=O)n12	-7	2%[15.4 µM]	-8.4%	8.4	-7	8%	3%
CCOC(=O)c1cccc(NC(=O)CSc2nnc(CNc3ccc(C)cc3)n2CC)c1	3	-20%	-4.8%	2.6	-5	0%	-10%
NC(=O)CSc1oc(-c2ccco2)nc1S(=O)(=O)c1ccc(Br)cc1	-2	-8%[15.4 µM]	0.2%&-13%	5.0	-9	-13%	-17%
CCOC(=O)Cc1nnc(-c2ccccc2)o1	-4	-42%[inhibitor]	-0.3%	1.1	-5	-2%	4%
CCOC(=O)c1c(C)[nH]c(C2=NNC(=NC3CC3)SC2)c1C	13	2%	-9.8%	-0.8	-3	7.1µM*	3%

Compound profiles (already shown):
Entry for `CCc1nc(C#N)c(N2CCOCC2)o1` = TRPV1 potentiator = -11; gsp ag = -14%; ClpP mod = ?; Menin-MLL FL inh = 1.8; D2 PAM = -11; Sfp inh = 15%; gsp antag = 9%
Entry for `CCOC(=O)c1c(C)[nH]c(C2=NNC(=NC3CC3)SC2)c1C` = TRPV1 potentiator = 13; gsp ag = 2%; ClpP mod = -9.8%; Menin-MLL FL inh = -0.8; D2 PAM = -3; Sfp inh = 7.1µM*; gsp antag = 3%
Entry for `CCOC(=O)Cc1nnc(-c2ccccc2)o1` = TRPV1 potentiator = -4; gsp ag = -42%[inhibitor]; ClpP mod = -0.3%; Menin-MLL FL inh = 1.1; D2 PAM = -5; Sfp inh = -2%; gsp antag = 4%

From PubChem BioAssay
